Compound activity (PubChem BioAssay)
Cruzain inh noDet = inhibitors of Trypanosoma cruzi cruzain without detergent. 2.3% of 200,000 active. purified cruzain, Z-FR-AMC fluorescence, no detergent. P25779. Potency, µM, without a hit: max response, negative = inhibition, actives largely listed as inhibitors;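 note: plate controls were enzyme without inhibitor for no effect and buffer without enzyme for full effect; nearly all actives have a fitted effect of over 40% in size; top concentration of the series not given in the record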
Target sequence (P25779 123-467 limits assumed): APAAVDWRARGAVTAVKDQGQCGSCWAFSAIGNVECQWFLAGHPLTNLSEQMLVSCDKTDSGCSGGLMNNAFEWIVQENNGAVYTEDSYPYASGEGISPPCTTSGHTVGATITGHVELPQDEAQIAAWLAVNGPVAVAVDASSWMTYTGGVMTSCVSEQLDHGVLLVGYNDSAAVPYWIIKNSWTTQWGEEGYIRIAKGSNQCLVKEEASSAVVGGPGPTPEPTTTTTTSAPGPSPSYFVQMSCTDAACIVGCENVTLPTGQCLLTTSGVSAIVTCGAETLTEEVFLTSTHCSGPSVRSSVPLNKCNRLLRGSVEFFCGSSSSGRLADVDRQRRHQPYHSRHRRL
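Purified cruzain at 1.5 nM, pre-incubated 15 min with compound at room temperature in 100 mM sodium acetate pH 5.5, 5 mM DTT, 0.00005% Triton X-100. Reaction started with 2 uM Z-FR-AMC; AMC fluorescence increase over 60 s gives rate.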
MARV entry inh = Marburg virus entry inhibition; Marburg virus pseudotyped entry inhibition, cell reporter; control for the full effect not named in the record; about a third of the inactives were read at about 46 µM; Potency, µM (doses to about 37.8 µM), without a hit: at the highest dose activity change, negative = inhibition, most hits filed as inhibitors; 1.8% of 300,000 active; AID 540276; active = well fitted inhibition curve with a large enough effect; inconclusive = small, poorly fitted or top-dose-only effect, or effect the other way; inactive = flat fitted curve, though single readings scatter; tested in HEK293 cells; about a fifth of its hits are not listed in these tables; note: % is set by controls: 0 for no effect and ±100 for the full control effect; luciferase read-out
NS1 function inh = influenza NS1 inhibition | S. cerevisiae slowed by influenza A NS1, growth recovery by OD600 | Potency, µM (top dose mostly 46.1 µM), for the others: top-dose activity, positive = more growth | 0.4% of 270,000 active; active means well fitted rising curve with a large enough effect; inconclusive means small, poorly fitted or top-dose-only effect; inactive means no such curve, though single readings can be large or run the other way; note: nearly all actives have a fitted effect of over 50% in size
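Recovery from NS1-induced slow growth read by OD600 in budding yeast switched to galactose assay medium (pH 6.0, -URA) at 1:100 dilution. Compound 23 nl per well; the matching strain lacking NS1 serves as control.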
SARS PLpro yeast = blocks SARS-CoV papain-like protease in a yeast assay. 0.19% of 330,000 active. AID 485353. Potency, µM (top dose mostly 32.9 µM), for the others: at the top dose activity, positive = growth rescue. S. cerevisiae expressing SARS-CoV PLpro, growth rescue; control for the full effect not named in the record; active means well fitted rising curve with a large enough effect; inconclusive means small, poorly fitted or top-dose-only effect; inactive means no such curve, though single readings can be large or run the other way; note: 0% is about no effect; nearly all actives have a fitted effect of over 55% in size; growth read by luminescence after 48 h
Lassa entry inh = Lassa virus entry inhibition. AID 540256. Potency, µM (doses to about 37.9 µM), without a hit: at the top dose activity change, negative = inhibition, most hits filed as inhibitors. 1.2% of 300,000 active. Lassa virus pseudotype entry inhibition, cell reporter; control for the full effect not named in the record; active means well fitted inhibition curve with a large enough effect; inconclusive means small, poorly fitted or top-dose-only effect, or effect the other way; inactive means flat fitted curve, though single readings scatter; tested in HEK293 cells; note: % is set by controls: 0 for no effect and ±100 for the full control effect; nearly all actives have a fitted effect of over 50% in size; luciferase read-out
Cruzain Triton = blocks cruzain activity in presence of Triton detergent; P25779; purified cruzain, Z-FR-AMC fluorescence, 0.01% Triton; Potency, µM, for inactives: max response, negative = inhibition, hits mostly inhibitors; 0.43% of 200,000 active; AID 1478;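 note: plate controls were neutral wells for no effect and buffer without enzyme for full effect; nearly all actives have a fitted effect of over 40% in size; top concentration of the series not given in the record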
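Cysteine protease activity tested under reducing, mildly acidic conditions (100 mM sodium acetate pH 5.5, 5 mM DTT) plus 0.01% Triton X-100. Cruzain 1.5 nM; substrate Z-FR-AMC 2 uM; 15 min compound preincubation at room temperature.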
RE007 growth inh = less growth of the S. pombe RE007 Vpr strain. 0.21% of 360,000 active. Potency, µM (doses to about 92.2 µM), for inactives: at the top dose activity change, negative = less growth. AID 651644. S. pombe RE007 Vpr strain, BacTiter-Glo ATP luminescence, 24 h; control for the full effect not named in the record; active = well fitted falling curve with a large enough effect; inconclusive = small, poorly fitted or top-dose-only effect; inactive = no such curve, though single readings can be large or run the other way;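 note: % is set by controls: 0 for no effect and ±100 for the full control effect; nearly all actives have a fitted effect of over 50% in size; the assay follows cell death caused by Vpr and the record does not say whether a fall means rescue or toxicity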
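Fission yeast RE007 carrying one integrated HIV-1 vpr copy, seeded at OD 0.01 in PMG+AL medium with 23 nL pinned compound. Grown 24 h at 30 degrees; viability read by BacTiter-Glo luminescence after 5 min.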
2A StopGo = lowers the luciferase signal of an FMDV 2A StopGo reporter. human cells with a luciferase reporter of 2A StopGo recoding; control for the full effect not named in the record. Potency, µM (doses to about 57.9 µM), inactives show top-dose signal change, negative = less light. 1.2% of 410,000 active; active = well fitted falling curve with a large enough effect; inconclusive = small, poorly fitted or top-dose-only effect; inactive = no such curve, though single readings can be large or run the other way; tested in HEK293T cells; note: % is set by controls: 0 for no effect and ±100 for the full control effect; nearly all actives have a fitted effect of over 45% in size; luciferase light after 4 h
An asterisk follows results filed as active; ? = inconclusive; nt = not tested or not shown; & = joins results of further samples; [ ] = remark or other dose. Unless noted, calls come from the whole dose curve; as a rule, active = well fitted curve in the direction sought with a large enough effect; inconclusive = small, poorly fitted or top-dose-only effect, or another doubt; inactive = no such curve, though single readings can be large; an effect the other way counts as inactive or inconclusive. Potency is the fitted concentration of half-maximal effect.

SMILES	Cruzain inh noDet	MARV entry inh	NS1 function inh	SARS PLpro yeast	Lassa entry inh	Cruzain Triton	RE007 growth inh	2A StopGo
CC(=O)N(CN1C(=O)C2CC=CCC2C1=O)c1cccc(Cl)c1 (configuration not stated)	1%	-1%	-7%	4%	3%	-2.7%	20%	-23%
O=C(CN1CCN(Cc2ccccc2)CC1)N/N=C/c1ccc(Br)s1	nt	?	2%	0%	?	nt	-5%	-14%
O=C(Nc1ccccc1N1CCN(c2ccc(F)cc2)CC1)C1CCCCC1	1%	-1%&2%	-12%	0%	1%	-1.5%	14%	-4%
CC1=NN(c2ccccc2)C(=O)/C1=C\c1cc(C)n(-c2cccnc2)c1C	nt	7%	2%	-2%	?	nt	13%	9%
c1ccc(CSc2nnc(-c3cccs3)o2)cc1	-10%	?	-120%	-15%	?	0.7%	9%	nt
COC(=O)c1cn(NC(=O)C2CCCCC2)c(=O)c2ccccc12	-4%	-1%	-6%	3%	-9%	-0.4%	3%	-21%
N#Cc1nc(COc2ccccc2Cl)oc1N1CCCCCC1	1%	nt	2%	2%	nt	-6.8%	-2%	?
CCCOc1ccc(N2C(=O)C/C(=C\c3ccccc3)C2=O)cc1	nt	nt	8%	0%	nt	nt	3%	-5%
CC1NC(=O)NC1CCCCCC(=O)NCCc1ccccc1 (configuration not stated)	?	21%	-14%	2%	?	3.3%	13%	nt
CCC(C)(C)NC(=O)C(c1cccn1C)N(C(=O)Cn1nnc2ccccc21)c1ccc(NC(C)=O)cc1 (configuration not stated)	nt	16%[46.1 µM]	1%	1%	-8%[46.1 µM]	nt	-15%	6%
COC(=O)CNC(=O)COC(=O)c1ccc(Cl)nc1	nt	-4%	nt	4%	-10%	nt	-2%	3%
Cc1c(NC(=O)c2nn3c(c2Br)NC(c2ccccc2)CC3C(F)(F)F)c(=O)n(-c2ccccc2)n1C (configuration not stated)	?	?	4%	2%	-1%	-2.3%	3%	-8%
O=C(c1ccccc1)N1N=C(c2ccco2)CC1c1cccs1 (configuration not stated)	nt	-11%[46.1 µM]	1%	-1%	?	nt	-12%	1%
O=C(COC(=O)c1cc[n+]([O-])cc1)Nc1ccc2c(c1)OCCO2	-2%	9%[46.1 µM]	10%	-4%	19%	0.5%	14%	22%
O=C(Nc1nc(-c2ccncc2)cs1)C1COc2ccccc2O1 (configuration not stated)	-5%	nt	-148%	-10%	nt	-6.6%	-23%	?
CC1CCN(CCCNC(=O)c2coc3nc4ccccc4nc23)CC1	-9%	3%	2%	4%	22%	-20%	0%	7%
O=C(O)CCn1c(=O)[nH]c(=O)n(CCC(=O)O)c1=O	nt	36%[46.1 µM]	nt	-2%	20%	nt	0%	4%
COc1ccc(-c2csc(N(CCCN(C)C)C(=O)c3ccccc3F)n2)cc1	nt	nt	5%	2%	nt	nt	-17%	22%
CC(=O)c1cccc(CN2CCC(C(=O)Nc3ccc(Oc4cccnc4)cc3)CC2)c1	nt	-24%	11%	?	-12%	nt	-3%	?
COc1ccc(NC(=O)c2c(C(=O)Nc3ccccc3)sc3nc(C)cc(=O)n23)cc1	-20%	?	nt	nt	-21%[46.1 µM]	-3.2%	nt	-11%
COc1ccc(OCc2nc(-c3ccc(F)c(F)c3)cs2)cc1	nt	3%[46.1 µM]	-2%	0%	-13%[46.1 µM]	nt	7%	-5%
COc1ccc(C(=O)/C=C/c2ccc3c(c2)OCCO3)cc1	nt	-13%	-39%	-1%	-15%	nt	-15%	24%
CSc1cccc(NC(=O)CC(c2ccc(F)cc2)N2Cc3ccccc3C2=O)c1 (configuration not stated)	8%	nt	nt	nt	-7%[46.1 µM]	-2.8%	nt	?
CCCCn1c(N)c(N(CC)C(=O)CSCc2ccc(C)cc2)c(=O)[nH]c1=O	nt	nt	1%	3%	nt	nt	13%	-12%
CCOc1ccc(N2C(=O)CC(N3CCN(C(=O)CN4CCCC4)CC3)C2=O)cc1 (configuration not stated)	8%	-27%	-46%	-25%	-3%	4.9%	-16%	nt

Next records follow:
SMILES	Cruzain inh noDet	MARV entry inh	NS1 function inh	SARS PLpro yeast	Lassa entry inh	Cruzain Triton	RE007 growth inh	2A StopGo
C=C1CCN(C(C(=O)OC)C(C)C)S(=O)(=O)c2ccc(F)cc21 (configuration not stated)	nt	nt	-1%	-1%	nt	nt	-2%	-6%
COc1ccc(N2CCN(C(=O)CSc3nnc4c(C)cc5cc(C)ccc5n34)CC2)cc1	?	18%&1%	3%	2%	0%	3.1%	6%	?
COC(=O)c1ccc(NC(=O)c2ccccc2SC)cc1	-7%	25%	-43%	-8%	?	2.1%	-27%	55%[activator]
COc1ccccc1C(=O)NNC(=O)C(=O)Nc1ccc(C)cc1	nt	6%[46.1 µM]	-78%	-7%	-29%[46.1 µM]	nt	-22%	7%
COc1ccc(S(=O)(=O)Nc2ccc(Cc3ccncc3)cc2)cc1OC	nt	1.4µM*	18%	-7%	?	nt	-4%	-17%
CN1C(c2ccc(F)cc2)=CS/C1=C(\C#N)c1nnc2n1-c1ccccc1SC2	-7%	?	-40%	3%	7%	-4.8%	11%	nt
Cc1ccc(CNC(=O)c2cc(Cl)cc(Cl)c2)n1C	nt	nt	-1%	2%	nt	nt	-7%	-23%
CCOc1ccc(N=Cc2c(O)n(-c3cccc(C)n3)c(=O)c3ccccc23)cc1	?	-2%	8%	2%	?	-3.3%	-8%	0%
O=C(CN1C(=O)CCOc2ccccc21)Nc1cccc(S(=O)(=O)N2CCOCC2)c1	nt	7%	nt	1%	2%	nt	-2%	-16%
CCC1(c2ccccc2)NC(=O)N(CC(=O)N(C)CC(=O)Nc2cccc(F)c2)C1=O (configuration not stated)	nt	0%	-4%	-1%	2%	nt	-21%	-3%
CCOC(=O)C1(CC2CCCCO2)CCN(S(=O)(=O)c2ccc(C)s2)CC1 (configuration not stated)	nt	10%[46.1 µM]	1%	-3%	3%[46.1 µM]	nt	14%	-1%
CCCC(=O)N1CCCC(c2nc(-c3cccs3)no2)C1 (configuration not stated)	5%	14%	-6%	-3%	30%	7.0%	1%	13%
CCn1c(CC(=O)Nc2ccc(C)cc2)nnc1SCC(=O)Nc1nc(C)cs1	?	-33%	2%	-2%	-17%	4.5%	-18%	-4%
CCOC(=O)CN(c1ccccn1)S(=O)(=O)c1ccccc1	-1%	24%	-1%	3%	18%	3.3%	3%	13%
Cc1ccc(CN2COc3c(Cl)cc4c(-c5ccccc5)cc(=O)oc4c3C2)cc1	-1%	17%[46.1 µM]	nt	nt	2%[46.1 µM]	-3.6%	nt	-17%
CCOc1ccc(-c2cccc(NS(=O)(=O)c3ccc(F)cc3F)c2)nn1	-3%	nt	nt	nt	-1%[46.1 µM]	-3.8%	nt	0%
Cc1c(-c2ccc(Cl)cc2)[n+](=O)c2c(n1[O-])CCCC2	nt	?	7%	-1%	0%[46.1 µM]	nt	2%	-14%
CCn1cc(C(=O)NCCCN2CCCC(C)C2)c(=O)c2cc(S(=O)(=O)N3CCc4ccccc4C3)ccc21 (configuration not stated)	nt	?	nt	-2%	?	nt	?	-16%
COc1ccc2[nH]c(C(=O)N/N=C/c3ccccc3OC)cc2c1	nt	nt	-3%	-1%	nt	nt	-17%	-5%
CCOC(=O)c1cnc2nc(C)nn2c1N	nt	0%[46.1 µM]	nt	1%	2%	nt	-9%	15%
Cc1c(Br)c([N+](=O)[O-])nn1CC(=O)Nc1cccc2nonc12	nt	-15%[46.1 µM]	nt	-2%	?	nt	-7%	-12%
Cc1c(Nc2cc(=O)oc3ccccc23)c(=O)n(-c2ccccc2)n1C	-10%	2%	?	-1%	6%	-1.4%	-3%	15%
COc1ccccc1CNC(=O)CN1C(=O)COc2ccc(S(=O)(=O)Nc3ccccc3)cc21	-22%	nt	nt	nt	-16%[46.1 µM]	-2.2%	nt	39%[activator]
O=c1[nH]c(SCc2nc3ccccc3n2Cc2ccccc2)nc2ccccc12	-11%	-23%	4%	4%	-13%	5.0%	-18%	-27%
C=CCn1c(SC(C)C(=O)Nc2ccc(Cl)cn2)nnc1C1CC1 (configuration not stated)	nt	0%[46.1 µM]	nt	0%	-6%	nt	17%	-8%

Following part:
SMILES	Cruzain inh noDet	MARV entry inh	NS1 function inh	SARS PLpro yeast	Lassa entry inh	Cruzain Triton	RE007 growth inh	2A StopGo
CN(CCC#N)C(=O)c1cc2c(s1)-c1ccccc1SC2	nt	?	-2%	-2%	14%	nt	15%	79%[activator]
COc1ccccc1OCC(=O)Nc1ccc(S(=O)(=O)N2CCCC2)cc1	nt	0%[46.1 µM]	-2%	2%	-16%	nt	-7%	-17%
O=C(Nc1nc(-c2ccc(Br)cc2)cs1)c1cccnc1	nt	-27%[46.1 µM]	3%	2%	-2%	nt	14%	-17%
COc1ccc(OC)c(C2=Nn3c(nnc3-c3ccncc3)SC2)c1	nt	4µM*	nt	nt	?	nt	-2%	-1%
COc1ccccc1N1CCN(/N=C/c2c(C)nn(-c3ccccc3)c2C)CC1	?	12%	13%	-3%	6%	-2.8%	-5%	?
COc1cc2nc(SCC(=O)Nc3ccccc3C)n3nc(CCn4c(C)nc5ccccc54)nc3c2cc1OC	-3%	11%[46.1 µM]	nt	nt	-1%[46.1 µM]	-1.0%	nt	-14%
O=c1[nH]c(CSc2ncn[nH]2)nc2ccccc12	nt	8%[46.1 µM]	3%	0%	18%	nt	-1%	17%
O=C(CCn1cnc2ccccc2c1=O)Nc1ccc(S(=O)(=O)N2CCCCC2)cc1	?	?	-50%	3%	-4%	1.6%	16%	-12%
COc1ccc(C(=S)N2CCC(C(N)=O)CC2)cc1Br	nt	18%[46.1 µM]	-2%	2%	-1%[46.1 µM]	nt	-22%	6%
COc1ccc(S(=O)(=O)N2CCCN(CC(=O)Nc3ccccc3F)CC2)cc1	nt	-3%[46.1 µM]	-28%	-1%	?	nt	24%	-11%
CCCn1c(C)cc(/C=C(\C#N)C(=O)OCC(=O)N(C)c2c(N)n(Cc3ccccc3)c(=O)[nH]c2=O)c1C	nt	?	nt	-4%	-9%	nt	-5%	54%[activator]
Cc1cc2ncc(C(=O)Nc3ccccc3)c(C)n2n1	-1%	2%	4%	-2%	1%	7.4%	-3%	-4%
Cc1nn2c(NCc3ccccn3)cc(C(C)C)nc2c1-c1ccccc1	nt	nt	-81%	1%	nt	nt	?	-27%
CCOC(=O)C(CCCOc1ccccc1C)C(=O)OCC	-3%	11%	-50%	-29%	-2%	-1.5%	1%	-8%
Cc1nc2ccccc2cc1C(=O)O	-8%	?	5%	-11%	19%	8.6%	23%	17%
COCCn1c(Cc2ccccc2)nnc1SCC(=O)N(C)C	6%	1%	-55%	1%	-1%	6.3%	7%	-20%
CC1CCC(C(C)C)C(OC(=O)C2=C3c4ccccc4S(=O)(=O)N3CC2)C1 (configuration not stated)	32µM*	?	8%	20%	2%	?	-16%	-12%
